Screening results from PubChem.
Sa growth inh – blocks Staphylococcus aureus growth. relative growth, % (no concentration beside the values). hit rate 0.53% among 170,000. AID 720641. S. aureus RN4220 growth, OD600, 20 h, 42 °C; stronger effect = lower value;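 active = growth at 42 °C up to 50% and 20 or more points under that at 30 °C, or under 10% at both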;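 note: 300 nL library stock went into each well; scaled to the means of positive and negative controls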
GIV-Gai inh – blocks GIV peptide binding to rat Galpha-i3 | P08753 | percent of control (FP), % (concentration not given with the values) | Galpha-i3/FITC-GIV peptide fluorescence polarization, 90 min; stronger effect = lower value; scaled: aluminum fluoride 0%, vehicle 100% | hit rate 0.42% among 210,000;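 active = replicate mean at 85% of control or lower, very high polarization wells dropped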;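 note: wells of about 15 µL received 100 nL stock; the first replicate is given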
Target sequence (P08753 whole entry, looked up): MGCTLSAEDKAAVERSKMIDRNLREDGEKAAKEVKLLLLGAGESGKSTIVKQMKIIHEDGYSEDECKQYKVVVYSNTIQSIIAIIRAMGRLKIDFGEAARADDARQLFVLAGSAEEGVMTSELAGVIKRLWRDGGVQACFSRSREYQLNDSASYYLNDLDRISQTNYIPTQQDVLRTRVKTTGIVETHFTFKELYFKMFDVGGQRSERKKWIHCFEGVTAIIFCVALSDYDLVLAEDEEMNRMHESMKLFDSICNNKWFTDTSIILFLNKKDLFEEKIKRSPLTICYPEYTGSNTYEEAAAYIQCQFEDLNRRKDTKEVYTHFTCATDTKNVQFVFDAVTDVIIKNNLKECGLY
HCMV NEC inh – disrupts HCMV UL50-UL53 complex binding. HTRF UL50-UL53 interaction, normalized percent inhibition. hit rate 0.15% among 190,000. AID 1918969. inhibition, % (no concentration beside the values);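 active = both replicates at 50% or more, plus weaker picks with an unusually low signal ratio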;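 note: stock transfer was 100 nL into about 20 µL; 0% = negative control wells and 100% = wells with untagged competitor protein; inactives centre near -12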
Sa growth inh second temp – second read-out of Sa growth inh, no call of its own (marks repeat the call); relative growth, %; measured here: growth at 30 °C;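 optical density after 20 h as mean of two plates; 100% = untreated growth and lower means inhibition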
Active calls of the source: *; . = no result given; & = joins results of further samples. The list is partial (hit frequency here may not be typical).

SMILES | Sa growth inh | Sa growth inh second temp | GIV-Gai inh | HCMV NEC inh
CCC(N)Cc1c[nH]c2ccccc12 (centres undefined) | 89 | 82 | . | -18
C=CCc1cc(/C=C2\C(=O)NC(=O)N(c3ccc4c(c3)OCO4)C2=O)cc(OC)c1OCC(=O)O | . | . | 116 | -12
CCOC(=O)c1c(CN2CCOCC2)n(Cc2ccccc2)c2cc(Br)c(O)cc12 | . | . | 99 | -4
Cc1ccc(P(=Nc2ccc(S(N)(=O)=O)cc2)(Oc2ccccc2)C(C)(C)C)o1 (centres undefined) | 82 | 91 | . | -12
COP1(OC)=NP(OC)(OC)=NP(OC)(OC)=NP(OC)(OC)=N1 | 99 | 85 | 101 | 2
COC(=O)C1=C(N)OC2=C(C(=O)CCC2)C12C(=O)Nc1ccc(Br)cc12 (centres undefined) | . | . | 100 | -11
CCn1cnc2c(Nc3cccc(Cl)c3)nc(N[C@@H]3CCCC[C@@H]3N)nc21 | . | . | 100 | -27&-11
Cc1cc(N2C(=O)[C@@H]3CCCN3[C@H]2c2ccccc2C)no1 | . | . | 100 | -25
Cc1cc(/N=c2/c3nnnn3c3ccccc3n2C2(O)C(=O)NC(=O)NC2=O)n(-c2ccccc2)n1 | 77 | 84 | . | -36
N#Cc1cc2c(nc1SCc1ccccc1Br)C1CCN2CC1 | 101 | 85 | 103 | .
C=CCSc1nnc(OC(=O)N(C)C)n1-c1ccc(Cl)cc1 | 120 | 83 | 98 | -3
CCc1c(CN2CCN(C)CC2)csc1C | . | . | 101 | 2
CC1N=C(c2ccccc2)c2ccccc2N(CCCOc2ccc(F)cc2)C1=O (centres undefined) | 107 | 88 | 101 | .
CCN1C[C@]2(COC)CC[C@H](O)[C@@]34C5C[C@@H]6[C@@H](OC)C[C@@](O)(C5[C@H]6OC)[C@@](O)([C@@H](OC)C23)[C@@H]14 (some centres undefined) | 108 | 86 | 106 | -18
CC1(C)CC(=O)C(C=NCCN2CCN(C(=O)Cc3ccc(Cl)cc3)CC2)=C(O)C1 | 100 | 92 | 108 | -7

Next section (4 carried over from the part before).
SMILES | Sa growth inh | Sa growth inh second temp | GIV-Gai inh | HCMV NEC inh
CCc1c(CN2CCN(C)CC2)csc1C | . | . | 101 | 2
CC1N=C(c2ccccc2)c2ccccc2N(CCCOc2ccc(F)cc2)C1=O (centres undefined) | 107 | 88 | 101 | .
CCN1C[C@]2(COC)CC[C@H](O)[C@@]34C5C[C@@H]6[C@@H](OC)C[C@@](O)(C5[C@H]6OC)[C@@](O)([C@@H](OC)C23)[C@@H]14 (some centres undefined) | 108 | 86 | 106 | -18
CC1(C)CC(=O)C(C=NCCN2CCN(C(=O)Cc3ccc(Cl)cc3)CC2)=C(O)C1 | 100 | 92 | 108 | -7
CN1C[C@H](C(=O)N[C@]2(C)O[C@@]3(O)[C@@H]4CCCN4C(=O)[C@H](Cc4ccccc4)N3C2=O)C=C2c3cccc4[nH]cc(c34)C[C@H]21 | 91 | 84 | 113 | -50
O=C(/C=C/c1ccco1)C1C(=O)c2ccccc2C1=O | 112 | 66 | 112 | -24
CCOC(=O)C1=C(c2ccccc2)N(CC(N)=O)C(=O)C12C(C#N)=C(N)Oc1ccccc12 (centres undefined) | 82 | 60 | 100 | -19
N#CC(C#N)=Cc1sccc1Br | 95 | 71 | 105 | -7
COc1ccc(CC#N)cc1 | 98 | 85 | . | 7
CCOC(=O)c1c(C)n(Cc2ccccc2)c2ccc(OCC(O)CNC(C)(C)C)cc12 (centres undefined) | 81 | 84 | 111 | .
Cc1cccc(Cn2cccc(C(=O)Nc3nnc(C)s3)c2=O)c1 | 147 | 88 | 98 | .
COc1ccc2nc(NC(=O)Cn3cnc4nc5c(cc4c3=O)CCCC5)sc2c1 | . | . | 111 | -1
Oc1cccc(CN2CCN(Cc3ccccc3)CC2)c1 | 116 | 107 | 98 | 4
CC(NCc1ccccn1)C(O)c1ccccc1 (centres undefined) | 112 | 81 | 103 | .
O=C(c1ccncc1)C12CN3CN(CN(C3)C1)C2 | 103 | 83 | 99 | -10
C=CCN1CC[C@]23c4c5ccc(O)c4OC2C(=O)CC[C@@]3(O)[C@H]1C5 (some centres undefined) | 91 | 90 | . | -65
CCN(CC)C1CCCCC1 | 76 | 92 | . | -2
COc1ccc(NC(=O)CN2C(=O)C(C)N=C(c3ccccc3F)c3cc(Cl)ccc32)c(OC)c1 (centres undefined) | 97 | 89 | 102 | .
O=P1(N2CCC(Cc3ccccc3)CC2)CC=CC1 | 94 | 89 | . | -11
Cc1cc2n(n1)CCCN2C(=O)CCC(=O)Nc1ccc(Cl)cc1C(=O)c1ccccc1 | . | . | 107 | 0
CCN(CC)C(=O)c1ccc(N2CCNCC2)c(NS(=O)(=O)c2ccc(Br)cc2)c1 | . | . | 101 | -14
CCCN(CCC)[C@H]1CCc2c(F)ccc(O)c2C1 | . | . | 103 | -14
C/C=C/C(=O)Nc1ccc(N2CCN(C)CC2)cc1 | 96 | 95 | 99 | -3
c1ccc(C2NCCc3[nH]cnc32)cc1 (centres undefined) | 94 | 88 | 102&101 | -17&-26
C=CC(C)C(C(=O)c1ccccc1)N(C)C (centres undefined) | 96 | 79 | 105 | -26
O=C(c1ccco1)c1cn(Cc2ccc(Cl)cc2)c2ccccc12 | 85 | 88 | 102 | -36
O=C(Cc1ccc(-c2ccccc2)cc1)N1CCN(CC(=O)N2CCCC2)CC1 | 108 | 105 | . | 0
Cc1cccc(Cn2cccc(C(=O)Nc3ccc4c(c3)OCCO4)c2=O)c1 | 100 | 91 | 104 | .
CCn1c2ccccc2c2cc(P(=S)(OC)OC)ccc21 | 89 | 82 | . | 4
CCN(CC)C(=O)CN1CCCN(Cc2cccc(C)c2)S1(=O)=O | 97 | 89 | 98 | -5
CC1c2cccn2-c2ccccc2CN1C(=O)NC1CCCC1 (centres undefined) | . | . | 104 | -19
CCN(CC)P(=S)(c1ccc(/C=N/NC(N)=O)o1)N(CC)CC | 108 | 94 | . | -25
COc1cc2c(cc1OC)C(C(=O)N(C)c1ccc(Cl)cc1)C1CCCCN1C2=O (centres undefined) | 85 | 80 | 103 | -25
C=C1N[C@@H](Cc2ccc3[nH]cc(CCN(C)C)c3c2)CO1 | 98 | 96 | 109 | -25
O=C(O)C(c1c(O)c2ccccc2oc1=O)c1c(O)c2ccccc2oc1=O | 97 | 79 | 93 | .
N#CC(C#N)=Cc1ccc(F)cc1F | 87 | 99 | 111 | 5
Nc1n[nH]c(Cc2nc(N)n[nH]2)n1 | 92 | 92 | 99 | -20
CCn1cc(C(=O)c2ccccc2)c2ccccc21 | 105 | 82 | 100 | 5
COc1ccc(C2CC(=O)Oc3c2c(=O)oc2ccccc32)c(OC)c1OC (centres undefined) | 100 | 93 | 108 | 13
O=c1cccc2n1CC1CC2CN(C(=S)Nc2ccccc2)C1 (centres undefined) | 100 | 88 | 102 | -36
Cc1[nH]c(=O)[nH]c(=O)c1C1N2CC3(C)CN1CC(C)(C2)C3=O (centres undefined) | 98 | 98 | 100&100 | -3&-18
O=C(c1ccccc1)C12CN3CN(CN(C3)C1)C2 | 82 | 102 | 106 | .
C=CCOC(=O)C1=C(C)OC(N)=C(C(=O)OCc2ccccc2)C12C(=O)Nc1ccccc12 (centres undefined) | . | . | 102 | -9
CN1CCC[C@@H]1Cc1c[nH]c2ccc(Nc3ncccc3[N+](=O)[O-])cc12 | . | . | 103 | -177
COc1ccc(CCNCc2ccc3c(c2)n(C)c(=O)n3C)cc1 | 111 | 89 | 105 | -27
CN(C)CC#Cc1ccc(C=C(C#N)C#N)cc1 | 95 | 79 | 184 | -50
CCc1nnc(NC(=O)CCc2nc(C3=CCN(C)CC3)no2)s1 | 105 | 83 | 104 | -10
O=c1cccc2n1CC1CC2CN(C(c2ccccc2)c2sc3ncnn3c2O)C1 (centres undefined) | 85 | 87 | 97 | -19
CSc1ncccc1C1=N/C(=C\N(C)C)C(=O)O1 | 102 | 90 | 98 | -40

The last 6 compounds of the part before lead into the next.
SMILES | Sa growth inh | Sa growth inh second temp | GIV-Gai inh | HCMV NEC inh
CN1CCC[C@@H]1Cc1c[nH]c2ccc(Nc3ncccc3[N+](=O)[O-])cc12 | . | . | 103 | -177
COc1ccc(CCNCc2ccc3c(c2)n(C)c(=O)n3C)cc1 | 111 | 89 | 105 | -27
CN(C)CC#Cc1ccc(C=C(C#N)C#N)cc1 | 95 | 79 | 184 | -50
CCc1nnc(NC(=O)CCc2nc(C3=CCN(C)CC3)no2)s1 | 105 | 83 | 104 | -10
O=c1cccc2n1CC1CC2CN(C(c2ccccc2)c2sc3ncnn3c2O)C1 (centres undefined) | 85 | 87 | 97 | -19
CSc1ncccc1C1=N/C(=C\N(C)C)C(=O)O1 | 102 | 90 | 98 | -40
CCOc1cc2c(cc1OCC)-n1cccc1C(c1c(O)cccc1OC)NC2 (centres undefined) | 79 | 87 | . | -10
Cc1cc(C)nc(SCc2nc3ccccc3c(=O)n2-c2ccccc2)n1 | 85 | 93 | 100 | -5
COc1ccc(CCNCc2ccccc2O)cc1 | 97 | 94 | . | -17
CC1(C)CSC(Nc2ccccc2Cl)=N1 | 98 | 82 | . | -42
CN=C1CN(O)C(c2ccccc2)=c2cc(Cl)ccc2=N1 | 90 | 90 | . | -79
O=c1cccc2n1CC1CC2CN(CC(O)CN2CC3CC(C2)c2cccc(=O)n2C3)C1 (centres undefined) | 109 | 98 | 109 | -7
CN1C(=O)Oc2ccc(Cl)cc2C1O (centres undefined) | 95 | 89 | 102 | -18
O=c1c2ccccc2[nH]c(=S)n1-c1ccccc1 | 91&120 | 85&80 | 105&104 | -13&-14
Cc1ccc(-n2c(/C=C/c3ccccc3)nc3ccccc3c2=O)cc1Cl | 110 | 93 | 109 | .
Cc1ccccc1-n1nc(C)c2c1NC(=O)CSC2c1ccccc1C(F)(F)F (centres undefined) | 82 | 61 | 99 | -5
O=C(O)CC[n+]1ccc(-c2cc[n+](CCC(=O)O)cc2)cc1 | 109 | 103 | 103 | .
CNC(=O)O/N=C/c1nn(C)cc1Br | 104 | 99 | 107 | 2
Cc1nn(-c2ccccc2)c2c1C(c1ccsc1)SCC(=O)N2 (centres undefined) | 91 | 76 | 106 | -27
O=C(c1ccc2c(c1)N(Cc1ccc(F)cc1)C(=O)c1ccccc1S2)N1CCC2(CC1)OCCO2 | 96 | 66 | 101 | .
CCN(CC)P(=N)(N(CC)CC)N(CC)CC | 90 | 93 | . | -11
CSc1nnc(OC(=O)N(C)C)n1-c1ccc(Cl)cc1 | 109 | 67 | 99 | 2
O=C1NC(=O)N(Cc2ccccc2)C(=O)/C1=C/c1ccc(O)cc1 | 108 | 96 | 111 | 31
CN1C(=O)C(=Cc2cn(CC(=O)NCc3ccco3)c3ccccc23)C(=O)N(C)C1=O | 68 | 87 | 113 | .
O=c1c2ccccc2nc(CNCC2CCCO2)n1-c1ccc(F)cc1 (centres undefined) | 128 | 76 | 108 | -20
COc1nc(C)nc(NC(=O)NS(=O)(=O)c2ccccc2Cl)n1 | . | . | 99 | -22
N#Cc1cc(F)c(N2CCNCC2)cc1Cl | 104 | 81 | 103 | -12
CCCCCCCCCCCCCCCC[n+]1ccccc1 | -0.8* | -0.4* | . | 32&-21
CN1CCc2cc3c(c4c2C1Cc1ccccc1-4)OCO3 (centres undefined) | 0.1* | 0.5* | 87 | -9
O1[As]2O[As]3O[As]1O[As](O2)O3 | 87 | 82 | . | -44
COc1ccc(NC(=O)CCc2nc(C3=CCN(Cc4cccc(C)c4)CC3)no2)c(OC)c1 | 101 | 91 | 100 | .
CCN(CC)P(=S)(c1nc2ccccc2n1CC)N(CC)CC | 83 | 66 | . | 3
O=C1CCN(CC(=O)c2ccc3cc[nH]c3c2)CC1 | 90 | 85 | 107&103 | -10&-40
c1ccc2c(CNCCc3c[nH]c4ccccc34)cccc2c1 | 80 | 69 | 111 | .
CCOC(=O)c1c(-c2ccccc2)n(Cc2ccccc2)c2ccc(O)c(CN(C)C)c12 | -0.9* | -0.3* | 106 | .
NC1=C(C(=O)OCc2ccccc2)C2(C(=O)Nc3ccccc32)C2=C(CCCC2=O)O1 (centres undefined) | . | . | 102 | -13
CCCN1CCC(N2CCC(O)CC2)CC1 | 117 | 103 | 91 | -9
CSc1nnc([C@@H](N)Cc2c[nH]c3ccccc23)o1 | 88 | 76 | 103 | -14
CCCC1C(=O)NC(=S)N(c2ccccc2)C1=O (centres undefined) | . | . | 103 | -12
CCOC(=O)c1cccc(NC(=O)CCc2nc(C3=CCN(C)CC3)no2)c1 | 124 | 91 | 103 | -8
CC(C)(C)NC(=O)CN1C2CCC1CC(O)(c1ccc(F)cc1)C2 (centres undefined) | 105 | 94 | 102 | -1
CC(CN)c1ccccc1 (centres undefined) | 81 | 89 | . | -24
CCc1ccc(CN2CCN(Cc3ccc(CC)cc3)CC2)cc1 | 119 | 87 | 101 | .
O=C(Nc1nc2ccccc2s1)c1cccn(Cc2ccccc2)c1=O | 145 | 87 | 102&102 | .
CCOC(=O)C1C(C)C2C(=O)C=CCC2N1C (centres undefined) | 87 | 96 | 97 | -57
COc1ccccc1N1CCN(Cc2ccc(Cl)cc2Cl)CC1 | 113 | 91 | 100 | -15
